H5N1 antiviral: MDCK cell protection from H5N1 avian flu; cytopathic effect, luminescence, 72 h; active compounds read high; no value below 0 was filed and about half of the inactive calls have no number; reference of the scale not given here; inhibition, % at 50 µM; 96,000 tested, 0.07% active; AID 740; in the data active = inhibition above about 25%
Active calls of the source: *; i = inactive. The list is partial (hit frequency here may not be typical).

smiles	H5N1 antiviral
O=C(Nc1cccc(Cl)c1)N1CCN(Cc2ccccc2)CC1	i
CC(C)n1c(-c2ccco2)csc1=Nc1cccnc1	0.8
Cc1nccn1CC(O)COC1CCCCC1 (stereo unspecified)	0.5
CC(=O)c1cc2c(cc1NS(=O)(=O)c1ccc3c(c1)OCCO3)OCO2	i
COc1cc(OC)cc(C(=O)NCc2cccnc2)c1	0.7
N#C/C(=C(\O)Cc1ccccc1)c1nc2ccccc2[nH]1	0.5
Cc1ccc(S(=O)(=O)NCc2ccncc2)cc1	i
Cc1ccc(C(=O)c2coc3ccc(O)c(Cl)c23)cc1	0.1
CC1CN(C(=O)COc2ncnc3ccccc23)CC(C)O1 (stereo unspecified)	i
COc1cccc(-c2nc(-c3ccc(NC(=O)c4ccncc4)cc3)no2)c1	1.2
CCCC(C)C(=O)Nc1ccc(NC(C)=O)cc1 (stereo unspecified)	0.2
Cc1nnc(NC(=O)c2ccco2)s1	5.8
COc1cc(Cl)c(C)cc1NC(=O)CCCN1C(=O)CCC1=O	i
CCCNC(=S)N1CCC(NC(=O)C2CCCCC2)CC1	0.4
Oc1ccccc1/C=N/Nc1nccnc1Cl	3.2
Cc1c(N2C(=O)C(C)SC23C(=O)Nc2ccccc23)c(=O)n(-c2ccccc2)n1C (stereo unspecified)	i
COc1ccc(CNC(=O)CN(CC2CCCO2)C(=O)CNS(=O)(=O)c2ccccc2)cc1 (stereo unspecified)	i
COc1ccccc1CC(=O)N1CCN(c2ccccn2)CC1	0.5
O=C(c1ccc2c(c1)ncn2C1CCCCC1)N1CCC2(CC1)OCCO2	i
COC(=O)C1CSC(C(=O)OC)N1C(=O)Nc1ccc(Cl)cc1 (stereo unspecified)	i
O=C(c1ccc(O)cc1)c1ccc(C(=O)c2ccc(O)cc2)cc1	i
Cc1ccccc1CNC(=O)c1ccc(CSCc2ccccc2)cc1	i
COc1ccc(C(c2c[nH]c3ccccc23)c2c[nH]c3ccccc23)cc1O	i
O=C(Nc1ccc(F)c(F)c1)c1ccc2c(c1)OCO2	i
O=C1CC(c2ccc(Cl)cc2)CC(O)=C1C=NCc1ccc(Cl)c(Cl)c1 (stereo unspecified)	i
COc1ccc(CCN2C(=O)C3C4C=CC(C4)C3C2=O)cc1OC (stereo unspecified)	0.6
COc1ccccc1C(=O)NCCn1cc(SCC(=O)Nc2nnc(C)s2)c2ccccc21	0.8
O=C(CN(Cc1ccco1)C(=O)CCC(=O)Nc1ccccn1)NCCc1ccccc1	1.4
COCCNC(=O)c1c[nH]n2c(=O)cc(C3CCN(C(=O)OC(C)(C)C)CC3)nc12	2.2
O=C(Nc1ccc(Br)cc1)N1CCCCCCC1	0.3

Shown with each value named: 4 of the compounds above
O=C(CN(Cc1ccco1)C(=O)CCC(=O)Nc1ccccn1)NCCc1ccccc1
  H5N1 antiviral: 1.4

O=C(Nc1ccc(F)c(F)c1)c1ccc2c(c1)OCO2
  H5N1 antiviral: i

COCCNC(=O)c1c[nH]n2c(=O)cc(C3CCN(C(=O)OC(C)(C)C)CC3)nc12
  H5N1 antiviral: 2.2

O=C(Nc1ccc(Br)cc1)N1CCCCCCC1
  H5N1 antiviral: 0.3

Further records
smiles	H5N1 antiviral
c1csc(CSc2nc3ccccc3s2)c1	i
Cc1ccc(S(=O)(=O)NNC(=O)CCC(=O)Nc2ccc(C)c(C)c2)cc1	i
O=C(Nc1cc(Cl)ccn1)C1CCN(S(=O)(=O)c2cccs2)CC1	0.7
COc1cccc(CN2CCNC(=O)C2CC(=O)O)c1OC (stereo unspecified)	0.1
CCOc1[nH]n(-c2ccc(Cl)cc2)c(=O)c1C=Nc1ccc(Cl)cc1	0.2
COc1ccc(C2C(C(=O)Nc3cccc(C)n3)CCC(=O)N2c2ccc(OC)cc2)cc1 (stereo unspecified)	0.3
CCc1c(O)nc(SCC(=O)Nc2ccccc2)n(-c2ccccc2)c1=O	0.0
O=C(Cc1n[nH]c(=O)c2ccccc12)OCC(=O)c1ccc2c(c1)OCCO2	i
CC(C)(C)c1ccccc1OCCN1CCCC1	0.1
CC(C)CSc1nc2c(c(=O)[nH]c(=O)n2C)n1CC(O)COc1cccc2ccccc12 (stereo unspecified)	1.7
O=C(CSc1nc2ccc(S(=O)(=O)N3CCOCC3)cc2[nH]1)N1CCOCC1	0.1
CCOC(=O)c1c(NC(=O)c2nn(CC)cc2Br)sc2c1CCCCC2	i
COc1ccc(/C(O)=C2/C(=O)C(=O)N(CCN(C)C)C2c2ccccn2)cc1OC (stereo unspecified)	0.5
COCCN(CC(=O)NCc1ccc(OC)cc1)C(=O)CCC(=O)Nc1nccs1	i
Cc1cccc(NC(=O)Cn2c(=O)n(CCC(=O)NC3CCCC3)c(=O)c3ccccc32)c1	i
CCc1c(C)nc2ncnn2c1N1CCC(C(=O)Nc2cccc(C(C)=O)c2)CC1	i
CC(CCC(=O)Nc1nncs1)C(=O)O (stereo unspecified)	0.7
CN(C)c1nc(-c2ccccc2)nnc1C(F)(F)F	i
Cc1ccc(-c2nnn(CC(=O)Nc3cccc4c3CCCC4)n2)o1	i
CCCC(=O)NCCCc1nc2ccccc2n1CC	0.7
Cc1ccc(N2C(=O)/C(=C/N3CCN(C(=O)c4ccco4)CC3)C(=O)NC2=S)cc1C	0.2
C=CCn1c(N)c(C(=O)NCC2CCCO2)sc1=S (stereo unspecified)	0.9
Cc1ccc(C)c(C(=O)Cn2ncc(Cl)c(Cl)c2=O)c1	i
COc1ccccc1CCn1cnc2c3cc(C)ccc3n(C)c2c1=O	2.1
CC(C)=C1C2CCC1C1C(=O)N(NC(=O)COc3ccc(Cl)c(C)c3)C(=O)C21 (stereo unspecified)	0.6
c1ccc2oc(SCc3cn4ccsc4n3)nc2c1	14
Cc1cccc(N(CC(=O)Nc2ccc(-c3nc4ccc(C)cc4s3)cc2)S(C)(=O)=O)c1	i
Cc1ccc(S(=O)(=O)NC(CC(=O)NC2CCCC2)c2ccco2)cc1 (stereo unspecified)	i
COc1cccc(C(=O)Oc2cc(-c3ccccc3)no2)c1	0.3
Cc1[nH]c(=O)[nH]c(=O)c1S(=O)(=O)N1CCCC(C(=O)NCCc2ccc(Cl)cc2)C1 (stereo unspecified)	i
O=C(NC1(C(F)(F)F)NC(=O)N(Cc2ccco2)C1=O)c1cccnc1 (stereo unspecified)	i
O=C(CN1CCCCC1)Nc1cccc([N+](=O)[O-])c1	i
COc1ccc(/C=N/NC(=O)CCc2c(C)n[nH]c2C)cc1OC	i
CCOc1ccc(C(CCc2ccccc2)NC(=O)c2ccc(OC)c(OC)c2)cc1OCC (stereo unspecified)	1.2
CN1CCN(CC(=O)Nc2ccc(OCc3ccccc3)cc2)CC1	i
Cc1nnc(SCCn2c(N3CCCC(C)C3)nc3c2c(=O)n(C)c(=O)n3C)s1 (stereo unspecified)	2.1
O=C(COc1ncnc2scc(-c3ccc(F)cc3)c12)NCc1ccco1	0.2
CCN(CC)Cc1cc2ccccc2c2c1COC2	0.2
COC(=O)/C(=C/Nc1ccc(O)cc1)[N+](=O)[O-]	i
CN1CCN(CCCNC(=O)c2nnc(Cc3c(F)cccc3Cl)o2)CC1	0.1
CCS(=O)(=O)N1CCN(C(=O)CC(C)C)CC1	i
Oc1ccc(-c2nc(-c3ccc(O)c(O)c3)cs2)cc1	i
COc1cccc(NS(=O)(=O)c2cc(C)sc2C)c1	1.5
Cc1[nH]n(-c2cccc(Cl)c2)c(=O)c1C=NC12CN3CN(CN(C3)C1)C2	i
Clc1ccccc1CSc1nnc(/C=C/c2ccccc2)o1	i
COc1cccc(OC)c1C(=O)Nc1ccc(CN2CCCCC2)cc1	i
CC(=O)N(C(C)=O)c1ccc2nc(C)[nH]c(=O)c2c1	0.9
CCc1nnc(NC(=O)CSc2nnc(COc3ccc(C#N)cc3)n2-c2ccccc2)s1	0.7
c1ccc2c(c1)CCCN2Cc1nnnn1CC1CCCO1 (stereo unspecified)	i
CC(C)Oc1ccc(C2CC(=O)N(c3cccc(C(=O)O)c3)C2=O)cc1 (stereo unspecified)	0.2

(list continues)
smiles	H5N1 antiviral
CCC(c1nnnn1Cc1ccc(F)cc1)N(CCCO)Cc1cc2cc3c(cc2[nH]c1=O)OCO3 (stereo unspecified)	i
Cc1nnc(SCc2cc(=O)[nH]c(N3CCN(Cc4ccccc4)CC3)n2)s1	0.8
COc1ccc(Cl)cc1Nc1nc(-c2sc(NC(=O)C(C)(C)C)nc2C)cs1	1.9
Cc1ccc(C(c2nnnn2C2CCCC2)N2CCN3CCCC3C2)cc1 (stereo unspecified)	i
CN(C)c1ccc(NC(=O)CC2NCCNC2=O)cc1 (stereo unspecified)	1.3
CC1CCC(C(C)C)C(OCC(O)CN2CCN(Cc3ccccc3)CC2)C1 (stereo unspecified)	i
COCCn1c(=O)[nH]c2cc(C(=O)N3CCN(c4ccccc4OC)CC3)ccc2c1=O	i
Cc1ccc(-c2nn3c(C)nnc3c3ccccc23)cc1S(=O)(=O)NC(C)c1ccccc1 (stereo unspecified)	6.7
C=CCn1c(SCC(=O)N2CCOCC2)nc2scc(-c3ccco3)c2c1=O	1.4
Cc1ccc(CNC(=O)CCSCCC(=O)NCc2ccc(C)cc2)cc1	0.3
Cc1ccc(S(=O)(=O)N2CN(Cc3ccco3)c3nc4ccccc4nc32)cc1C	0.1
Cc1cnc(C)c(N2CCC(C(=O)NCc3ccco3)CC2)n1	0.2
COc1ccc(Oc2c(Cl)cnn(-c3ccc(C)cc3)c2=O)cc1	3.8
CC(=O)Nc1cccc(C(=O)OCc2ccccc2)c1	i
CCOC(=O)CCCNC(=O)COC(=O)c1cccc(C)c1O	i
Cc1nc2c(n1O)CCC/C2=N\O	0.3
O=C(N=Nc1c(O)n(C2OC(=O)c3ccccc32)c2ccccc12)c1ccc(O)cc1 (stereo unspecified)	i
Cc1cc(C(=O)NC(C)C)on1	0.2
Cc1nc([N+](=O)[O-])c(Br)n1CC(=O)c1ccccc1	4.0
CC1(C)CC(=O)C2=C(C1)Nc1ccccc1NC2c1nc2ccccc2[nH]1 (stereo unspecified)	0.9

An excerpt from above in order of number of heavy atoms, low to high.
smiles	H5N1 antiviral
CC(=O)Nc1cccc(C(=O)OCc2ccccc2)c1	i
COc1ccc(Oc2c(Cl)cnn(-c3ccc(C)cc3)c2=O)cc1	3.8
CC1(C)CC(=O)C2=C(C1)Nc1ccccc1NC2c1nc2ccccc2[nH]1 (stereo unspecified)	0.9
O=C(N=Nc1c(O)n(C2OC(=O)c3ccccc32)c2ccccc12)c1ccc(O)cc1 (stereo unspecified)	i

Continued.
smiles	H5N1 antiviral
O=C(COC(=O)CNC(=O)c1ccc(Br)o1)Nc1ccc2c(c1)OCCO2	i
CCOc1ccc(CNC(=O)C(CC)n2nc(C)n3c(cc4occc43)c2=O)cc1OC (stereo unspecified)	1.6
O=S(=O)(Nc1cccc2ccccc12)N1CCCC1	i
Cc1cc(C(=O)NCc2cc(C(=O)O)oc2C)c(C)o1	0.5
COC(=O)C1=C(C)N(c2ccc(F)cc2)C(=O)C1	i
N#CC1=C(S)N(c2ccc(F)cc2)C(c2cccs2)NC1=O (stereo unspecified)	0.3
CCC(C)Nc1nc(-c2ccc3c(c2)NC(=O)CO3)cs1 (stereo unspecified)	i
Cc1noc(N)c1C(=O)Nc1ccc(F)c(Cl)c1	i
O=C(O)c1ccc(-n2nnnc2Oc2cccc3cccnc23)cc1	0.6
O=C(CSc1nnc(-c2ccccc2Cl)o1)N1CCCCC1	2.9
O=C(c1ccc(Cl)cc1)N1CCC(c2nc(-c3cccs3)no2)CC1	i
Nc1ccc(C(=O)N/N=C\c2cc(N=Nc3cccc4ccccc34)ccc2O)cc1	i
Cc1cccc(OCCCC(=O)Nc2ccccc2C(F)(F)F)c1	i
COc1ccc(CCN(Cc2nc3ccccc3c(=O)[nH]2)C(=O)c2ccco2)cc1OC	0.2
CC1CCCCN1Cc1ccc(N(C)C)cc1 (stereo unspecified)	3.3
Cc1cc(C)c(C#N)c(SCc2[nH]nc3c2C(c2ccccc2)C(C#N)=C(N)O3)n1 (stereo unspecified)	i
CC(Sc1nncs1)C(=O)NCc1ccc2c(c1)OCO2 (stereo unspecified)	0.8
Cc1nn(C)cc1CNC(=O)c1cccc(Cl)c1	0.4
CCOc1ccccc1N1CCN(C(=O)c2cc(C)oc2C)CC1	i
CCCCC(C)n1[nH]c(=O)cc1N (stereo unspecified)	i
CN(CC(=O)Nc1ccccc1N1CCOCC1)S(=O)(=O)c1ccc(Cl)cc1	i
CCOC(=O)c1c(C)c(C(=O)NCc2cccs2)c(C)n1CC	i
Cc1ccc(Sc2nc3c(c(=O)[nH]c(=O)n3C)n2CCc2ccccc2)cc1	1.3
CCOc1cc(C2NC(=O)NC(C)=C2C(=O)NCc2ccccc2)c(Cl)cc1O (stereo unspecified)	0.4
COC(=O)c1cc(OC)c(OCc2cc(C(=O)OC)oc2C)c(OC)c1	i
C(=N\n1cnnc1)/c1cccnc1	i
c1ccc(CSc2nnc3c(n2)OC(c2ccco2)Nc2ccccc2-3)cc1 (stereo unspecified)	0.1
O=C(OC1CCN(c2ncc(C(F)(F)F)cc2Cl)CC1)c1ccc(Cl)cc1	i
COc1cccc(NC(=O)Cn2nc(Cc3cccnc3)c3ccccc3c2=O)c1	1.2
CCN(CC#CCC1(O)c2ccccc2-c2ccccc21)C(C)C	0.4

High-throughput results: PubChem, SRMLSC
